From PubChem BioAssay
D2 agonist – agonists of human D2 dopamine receptor (beta-arrestin) | P14416 | DiscoveRx PathHunter D2 beta-arrestin, luminescence, 90 min; 100% = 57 uM dopamine signal | activation, % (test concentration not listed) | 360,000 tested, 0.084% active; in the data active = activation above about 40%; inconclusive = about 15% to 40%; inactive = below about 15%; further: compound concentration not given in the record; the text of the record calls up to 30% inactive
Target sequence (P14416 whole entry, looked up): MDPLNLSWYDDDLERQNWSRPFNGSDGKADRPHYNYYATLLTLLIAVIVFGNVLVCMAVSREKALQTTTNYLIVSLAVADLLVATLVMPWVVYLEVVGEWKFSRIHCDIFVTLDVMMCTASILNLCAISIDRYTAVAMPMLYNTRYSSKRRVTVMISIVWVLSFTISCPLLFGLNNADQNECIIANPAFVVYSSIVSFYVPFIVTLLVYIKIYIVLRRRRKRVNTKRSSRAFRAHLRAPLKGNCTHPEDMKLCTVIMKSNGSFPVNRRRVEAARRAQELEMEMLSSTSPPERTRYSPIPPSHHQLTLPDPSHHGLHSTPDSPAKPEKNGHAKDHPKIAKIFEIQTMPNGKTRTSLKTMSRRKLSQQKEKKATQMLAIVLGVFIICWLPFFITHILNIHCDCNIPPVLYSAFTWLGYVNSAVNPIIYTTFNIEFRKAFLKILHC
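Agonist mode: compounds alone added to overnight-plated D2 PathHunter cells for 90 min at 37 C, with 57 uM final dopamine (EC100) defining full response. Beta-arrestin recruitment detected by chemiluminescent reagent, read after 1 h at ambient temperature.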
PINK1 expr mod – PINK1 expression modulation; 410,000 tested, 0.2% active; AID 624263; Potency, µM (doses to about 76.6 µM), for inactives: at the top dose activation (PINK1 increase), most hits filed as activators; PINK1 immunofluorescence, high-content cytometry, 24 h; active = well fitted activation curve with a large enough effect; inconclusive = small, poorly fitted or top-dose-only effect; inactive = flat fitted curve, though single readings scatter; cell line not stated here;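 further: potency means the concentration at half of the fitted maximal effect; % of control where 0% means no effect; nearly all actives have a fitted effect of over 65% in size; a mitochondrial uncoupler was the plate control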
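Readout is PINK1 immunofluorescence, quantified alongside mitochondrial, cell and nuclear markers by laser-scanning microplate cytometry. Cells from a stable line were exposed to compound titrations (5 concentrations) for 24 hours, with CCCP controls.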
TRPML1 ag – human mucolipin-1 channel agonism; Q9GZU1; TRPML1-expressing cells, Ca2+ dye fluorescence, FDSS; host cell line not named in the record; reference of the full effect not given here; activation, % (concentration not given with the values); 410,000 tested, 0.12% active; in the data active = activation above about 50%; inconclusive = about 30% to 50%; inactive = below about 30%; further: 0% is about no effect; the text of the record puts the active cut at 80%
Target sequence (Q9GZU1 whole entry, looked up): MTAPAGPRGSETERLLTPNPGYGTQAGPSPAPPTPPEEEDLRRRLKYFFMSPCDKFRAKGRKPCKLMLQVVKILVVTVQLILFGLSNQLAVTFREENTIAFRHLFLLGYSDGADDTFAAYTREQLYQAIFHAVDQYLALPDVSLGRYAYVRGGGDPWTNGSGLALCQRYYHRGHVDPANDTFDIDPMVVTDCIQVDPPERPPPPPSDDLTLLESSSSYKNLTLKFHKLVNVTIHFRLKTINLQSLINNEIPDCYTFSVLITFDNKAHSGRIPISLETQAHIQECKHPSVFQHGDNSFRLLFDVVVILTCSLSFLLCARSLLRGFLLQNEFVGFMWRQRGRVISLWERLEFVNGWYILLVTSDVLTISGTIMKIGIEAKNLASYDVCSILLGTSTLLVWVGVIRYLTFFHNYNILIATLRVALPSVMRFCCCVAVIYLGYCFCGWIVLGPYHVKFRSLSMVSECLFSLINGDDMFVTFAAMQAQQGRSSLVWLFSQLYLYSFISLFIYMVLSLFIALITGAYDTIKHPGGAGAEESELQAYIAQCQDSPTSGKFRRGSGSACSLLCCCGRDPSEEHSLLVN
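Kinetic FDSS Ca2+ read in Tet-induced TRPML1-DL cells (ABD Ca8 dye plus quencher, 45-90 min RT loading): baseline, then compound, then 110 s agonist window; EC80 agonist 54-4 at 4uM final added afterwards for a 110 s antagonist window.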
CtBP-E1A blk – inhibitors of CtBP/E1A interaction | AlphaScreen GST-E1A/His-CtBP binding, 1536-well; hits give low values; control for the full effect not named in the record | activity change, % (concentration not given with the values) | 340,000 tested, 0.49% active | AID 651724; in the data active means activity change below about -65%; inconclusive means about -30% to -65%; inactive means above about -30%; further: on the % scale 0 is the no-effect control and ±100 the full control effect
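In 5 uL wells, 23 nL compound meets equimolar GST-E1A and His-CtBP (5X stock 125 nM each) for 2 h, 37 °C. Beads (5X, 50 ug/mL) then 1 h, 37 °C, dark.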
Six1-Eya2 inh – inhibitors of human Six1/Eya2 interaction | Q15475+O00167 | activity change, % (no concentration beside the values) | 360,000 tested, 0.56% active | AlphaScreen GST-Six1/His-Eya2 binding, biochemical; hits give low values; control for the full effect not named in the record; in the data active = activity change below about -65%; inconclusive = about -30% to -65%; inactive = above about -30%; further: on the % scale 0 is the no-effect control and ±100 the full control effect; compound concentration not given in the record
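Compounds are tested against tagged Six1 and Eya2 proteins bridged by glutathione donor and nickel acceptor beads; after a one-hour incubation at 37 °C without light, AlphaScreen emission is recorded.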
TRPML1 inh – blocks the human TRPML1 channel. Q9GZU1. TRPML1-inducible cells, Ca2+ dye fluorescence, FDSS; hits give low values; inhibition of EC80 agonist-evoked calcium signal. activity change, negative = inhibition, % (concentration not given with the values). 390,000 tested, 0.02% active; in the data active means activity change below about -50%; inconclusive means about -30% to -50%; inactive means above about -30%;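 further: stimulus is agonist 54-4 at its EC80 concentration; on the % scale 0 is the no-effect control and ±100 the full control effect; compound concentration not given in the record; the text of the record puts the active cut at -80%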
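Calcium fluorescence in TRPML1-DL cells induced overnight with Tet: a 110 s read after compound pin addition, then a 110 s antagonist read after challenge with 54-4 at 4 uM final (EC80).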
* = called active by the depositor; ? = inconclusive; · = no result given. This is a subset; the hit share may differ from the screen's.

SMILES	D2 agonist	PINK1 expr mod	TRPML1 ag	CtBP-E1A blk	Six1-Eya2 inh	TRPML1 inh
O=C1/C(=C/c2ccccc2)C[C@@]2(O)[C@H]3Cc4ccc(O)c5c4[C@@]2(CCN3CC2CC2)C1O5 (stereo partly drawn)	-11	0.6%	3.1	-11	6	27
CC(O)(CS(=O)(=O)c1cccc(C(F)(F)F)c1)C(=O)Nc1cccc(C(F)(F)F)c1 (stereo not drawn)	-1.6	?	0.1	2	-2	-3
Cn1c(=O)n(CC(=O)N2CCC3(CC2)OCCO3)c(=O)c2ccccc21	-1.6	-2.8%	0.4	-2	11	-2
COc1cc2cc(C(=O)N3CC(COS(C)(=O)=O)c4ccc(O)cc43)[nH]c2c(OC)c1OC (stereo not drawn)	-0.6	-5.3%	2.1	3	?	-2
CC(C)(C)n1nnnc1C(C1CC1)N1CCC(n2c(=O)[nH]c3ccccc32)CC1 (stereo not drawn)	-1.5	-0.2%	-0.3	9	11	·
C=CCn1c(O)c(C(CC)=NCC2CCCO2)c(=O)[nH]c1=O (stereo not drawn)	-5.0	1.7%	0.4	-3	-5	1
COC(=O)c1ccc(C(C(=O)NC2CCCCC2)N(CCN2CCOCC2)C(=O)Cc2cccs2)cc1 (stereo not drawn)	-3.4	-0.8%	2.6	-9	7	12
CCOC(=O)C1=C(C)OC(N)=C(C#N)C12C(=O)N(C)c1ccccc12 (stereo not drawn)	-0.2	-0.3%	1.9	9	-1	14
CC1=NN(c2ccccc2)C(=O)C1/C=C1\C(=O)NC(=O)N(c2cc(C)cc(C)c2)C1=O (stereo not drawn)	-1.0	0.9%	-0.8	7	-3	4
Cc1nc2ccccc2c(=O)n1-c1ccc(C(=O)O)cc1	0.6	2.2%	0.1	8	1	7
CCCCc1cc(=O)oc2cc(OCC(=O)N3C[C@H]4C[C@@H](C3)c3cccc(=O)n3C4)c(Cl)cc12	-3.3	-0.3%	·	-3	1	·
NC1=NC(c2cccnc2)n2c(nc3ccccc32)N1 (stereo not drawn)	0.2	-1.6%	-0.4	2	3	21
CSc1ncc(/C=C2/C(=O)NC(=O)N(c3ccc(Cl)cc3)C2=O)cn1	1.3	-2.0%	-0.2	0	0	7
C=C(C)[C@@]12OC3(c4ccccc4)O[C@@H]1C1[C@@H]4O[C@]4(CO)[C@@H](O)[C@]4(O)C(=O)C(C)=C[C@H]4[C@@]1(O3)[C@H](C)[C@H]2OC(=O)/C=C/C=C/c1ccccc1 (stereo partly drawn)	-3.3	14%	1.6	1	-10	5
CN1CCC(c2c[nH]c3ccc(O)cc23)CC1	6.0	0.3%	-0.5	-2	1	55
CN1Cc2cnnn2-c2ccccc2C1C#N (stereo not drawn)	-1.1	0.0%	0.6	-28	0	-19
Cc1ccc(OCC(=O)NCCN2CCN(C(=O)COc3ccc(C)cc3)CC2)cc1	-4.0	0.4%	1.2	1	-3	8
COC(=O)C1=C(c2cc3ccccc3s2)C[C@@H]2CC[C@H]1N2C	3.5	2.9%	-0.7	-5	-6	-29
COC(=O)C1=C(c2ccccc2)C[C@@H]2CC[C@H]1N2C(=O)NCC1CC1	-2.8	1.4%	0.1	0	8	-1
CC(=O)Nc1ccccc1C(=O)OCC(=O)c1ccc2c(c1)OCCO2	-7.3	-0.1%	0.7	4	6	-3
Cc1cccn2c(=O)c3cc(C(=O)N4CCC5(CC4)OCCO5)n(C)c3nc12	-1.2	17%	0.0	11	-1	13
COC(=O)C1=C(c2ccc(OC(F)(F)F)cc2)C[C@@H]2CC[C@H]1N2C(=O)NC1CCCCC1	0.8	15%	0.3	-23	-5	-1
Cn1cccc1CNCCc1ccccc1F	-0.4	?	0.6	0	-27	11
O=C(Cc1ccccc1[N+](=O)[O-])N1CCN(Cc2ccc3c(c2)OCO3)CC1	4.6	-1.9%	-0.5	2	78	-10
CCC(=Nc1cccc(C(F)(F)F)c1)c1c(O)n(C)c(=O)n(C)c1=O	-2.5	-0.7%	0.1	7	7	6
CC(N)C(=O)NC1C2C(=C(O)CC(O)C2O)C(=O)OC1(C)C(Cl)Cl (stereo not drawn)	-1.1	-7.2%	0.3	0	-1	-18
CCC(COC(=O)NC)NC(=O)Oc1cccc(C)c1 (stereo not drawn)	-7.4	0.8%	4.3	-2	1	11
COc1ccc(C(c2nnnn2-c2ccc3c(c2)OCCO3)N2CCC(n3c(=O)[nH]c4ccccc43)CC2)cc1 (stereo not drawn)	15	2.1%	0.2	-14	-18	·
OC(CNCCc1c[nH]c2ccccc12)C(F)(F)F (stereo not drawn)	4.7	-0.2%	-0.6	0	3	-7
FC(F)(F)c1ccc2c(c1)N(CCCN1CCN(CCCl)CC1)c1ccccc1S2	-2.1	16%	0.1	-15	-19	6
COc1ccc(C(O)C(C)NC(C)C(O)c2ccc(OC)cc2)cc1 (stereo not drawn)	-2.7	8.3%	5.0	9	5	22
CSc1ccccc1NP1(=O)OCC(C)([N+](=O)[O-])CO1 (stereo not drawn)	-1.5	-0.2%	0.0	-15	12	-7
CCOc1ccc(C(=O)OC2CC3CCC(C2)N3C)cc1 (stereo not drawn)	-5.4	-0.8%	0.3	·	4	-19
C=CCN1C(=O)NC(=O)/C(=C/c2c(CCN(C)C(=O)c3ccccc3)cc3c(c2OC)OCO3)C1=O	-1.9	-0.1%	0.2	6	5	5
COc1ccc(-c2cc(C(F)(F)F)n3nc(C(=O)N4CCC5(CC4)OCCO5)cc3n2)cc1OC	-2.7	-1.7%	-0.5	-1	2	-3
CC1(C)CC(=O)C=C(NCCN2CCN(C(=O)Cc3ccc(Cl)cc3)CC2)C1	-2.1	-1.0%	1.4	3	4	13
CCCC(=O)NC(Oc1ccc(C(C)=O)cc1)C(Cl)(Cl)Cl (stereo not drawn)	13	-0.8%	-0.3	-7	0	11
CN(C)CC1CCCCC1=O (stereo not drawn)	4.3	-0.4%	-0.2	4	4	-2
Clc1cccc(Cl)c1Cl	4.4	-0.4%	0.2	1	1	-8
COC(=O)C1=C(c2ccc(C(C)=O)cc2)C[C@@H]2CC[C@H]1N2C(=O)N1CCC(O)(c2ccc(Cl)cc2)CC1	0.8	0.4%	0.4	-8	-3	18
Cc1ccc2c(c1Cl)NC(C(=O)O)C1CC(Sc3ccccc3[N+](=O)[O-])C(Cl)C21 (stereo not drawn)	2.1	-1.1%	0.5	-8	-7	16
C[n+]1c(-c2ccccc2)c2cc(N)ccc2c2ccc(N)cc21	7.3	-1.2%	-0.2	?	-20	10
C=CCn1c(O)c(C(C)=Nc2ccc(N(C)C)cc2)c(=O)[nH]c1=O	-1.2	10%	-0.1	-2	-1	6
Cc1cc(C)cc(N2C(=O)NC(=O)/C(=C\c3cccn3-c3ccc(Cl)cc3)C2=O)c1	0.6	-1.4%	-0.6	1	-3	2
O=[N+]([O-])/C=C1/NCCN1Cc1ccc(Cl)nc1	-4.8	-1.5%	1.3	-3	5	12
CN(C)c1cc[n+](CC(O)C[n+]2ccc(N(C)C)cc2)cc1	-4.0	1.0%	0.0	2	0	-6
CCCCn1c(O)c(C(C)=NCc2cccnc2)c(=O)[nH]c1=O	-5.5	1.2%	-0.4	0	-14	-15
CC1([N+](=O)[O-])COP(=O)(Nc2cccc(F)c2)OC1 (stereo not drawn)	-0.7	-6.6%	0.3	62	102	-21
Cn1c(=O)c2c(ncn2CCCl)n(C)c1=O	-2.2	0.0%	-0.5	3	4	-4
O=c1[nH]c2ccccc2n1C1CCN(C(c2cccc3ccccc23)c2nnnn2-c2ccc3c(c2)OCCO3)CC1 (stereo not drawn)	-1.9	0.1%	0.0	-14	-17	-12
N#CC(Br)Br	-3.3	-0.8%	-0.8	1	-4	15
Cn1c(O)c(/C=C/C=Nc2ccccc2)c(=O)n(C)c1=O	2.0	3.0%	1.8	16	8	25
CC(Cc1ccccc1)NCc1ccccc1O (stereo not drawn)	-5.3	0.1%	-0.4	7	25	-1
CCCC1(CC(C)CC)C(=O)NC(=O)NC1=O (stereo not drawn)	-1.4	-1.0%	-0.6	2	1	-8
Cc1ccsc1C(=O)C1CCCN(Cc2ccccc2O)C1 (stereo not drawn)	-0.8	-0.3%	2.2	6	5	-3
CC(=O)Nc1ccccc1C(=O)OCC(=O)Nc1ncccn1	-3.6	2.3%	0.1	0	-3	11
CCc1ccccc1N1C(=O)/C(=C/c2ccc(N3CCN(C)CC3)o2)C(=O)NC1=S	-3.2	2.1%	4.0	-3	-11	47
CCOc1ccc(C(NC(=O)c2cc(OC)c(OC)c(OC)c2)c2cc(Cl)c3cccnc3c2O)cc1 (stereo not drawn)	·	?	0.2	·	·	-2
Cc1ccc2nc3c(cc2c1)CC1(C(=O)N(C)C(=O)N(C)C1=O)C1CCCCN31 (stereo not drawn)	-2.5	0.4%	0.7	3	-1	3
CC(=O)[C@H]1CC[C@H]2[C@@H]3CC[C@H]4C[C@H](O)CC[C@]4(C)[C@H]3C(=O)C[C@]12C	·	4.3%	1.4	5	3	16

In the list so far, 3 have a cyano group.
SMILES	D2 agonist	PINK1 expr mod	TRPML1 ag	CtBP-E1A blk	Six1-Eya2 inh	TRPML1 inh
CCOC(=O)C1=C(C)OC(N)=C(C#N)C12C(=O)N(C)c1ccccc12 (stereo not drawn)	-0.2	-0.3%	1.9	9	-1	14
CN1Cc2cnnn2-c2ccccc2C1C#N (stereo not drawn)	-1.1	0.0%	0.6	-28	0	-19
N#CC(Br)Br	-3.3	-0.8%	-0.8	1	-4	15

Going on with the list.
SMILES	D2 agonist	PINK1 expr mod	TRPML1 ag	CtBP-E1A blk	Six1-Eya2 inh	TRPML1 inh
Cn1c2ccccc2c2c(C(=O)N3CCC4(CC3)OCCO4)cn(C3CCCC3)c(=O)c21	3.3	1.2%	-0.4	2	-1	-7
CSCCC(c1nnnn1C(C)(C)C)N1CCC2(CC1)C(=O)NCN2c1ccccc1 (stereo not drawn)	-1.1	-0.2%	0.3	-1	-8	·
CCC(=NCCCn1ccnc1)c1c(O)n(-c2ccc(OC)cc2)c(=O)[nH]c1=O	-4.4	0.3%	0.3	-12	-9	4
CC12CN3CC(C)(CN(C1)C31CCOCC1)C2=O	-0.2	3.0%	-0.7	7	7	-3
COc1ccc(CN2CCN(Cc3ccccc3OC)CC2)cc1	-2.9	2.2%	1.6	·	0	1
O=C(O)CCC(=O)NCCC1=c2ccccc2=N/C1=C\c1c(O)n(Cc2ccc(F)cc2)c(=S)[nH]c1=O	-5.7	1.3%	0.1	-18	-13	11
C/C=C/CC#N	-0.8	0.2%	-0.8	5	-1	13
COc1ccc(OCC(=O)N2CCN(C/C=C/c3ccccc3)CC2)cc1	-2.0	1.0%	-0.3	·	7	18

Full records from above.
Cc1ccc(OCC(=O)NCCN2CCN(C(=O)COc3ccc(C)cc3)CC2)cc1 as listed: D2 agonist = -4.0; PINK1 expr mod = 0.4%; TRPML1 ag = 1.2; CtBP-E1A blk = 1; Six1-Eya2 inh = -3; TRPML1 inh = 8
CSCCC(c1nnnn1C(C)(C)C)N1CCC2(CC1)C(=O)NCN2c1ccccc1 (stereo not drawn) as listed: D2 agonist = -1.1; PINK1 expr mod = -0.2%; TRPML1 ag = 0.3; CtBP-E1A blk = -1; Six1-Eya2 inh = -8; TRPML1 inh = ·
